Biofilm kill mix: mixtures killing C. albicans biofilm | C. albicans biofilm persisters + clotrimazole, fluorescence viability; primary screen in compound mixtures of four per well | inhibition, % at 7.6 µM | 120,000 compounds, 0.02% hits;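 active = inhibition above 30.3% in the primary screen of four-compound pools, then above 30% when the compound was retested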;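 also: compounds exposed to preformed 24 h biofilms for 48 h; the number belongs to the whole pool; some results filed as inactive read as strong as hits; inactives centre near 12; 0% = biofilm with clotrimazole alone and 100% = kill control; retested singly at about 60 µM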
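Incubation: 24 h biofilm formation, then 48 h compound exposure, 37 °C | Material: C. albicans biofilms | Buffer or medium: RPMI/MOPS medium, pH 7.0 | Measured by: 2-h Alamar Blue fluorescence, 535/590 nm excitation/emission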
* hit, by the source's call.

SMILES	Biofilm kill mix
Cc1ccc(CNc2nc(N)c([N+](=O)[O-])c(NCCO)n2)cc1	13
Cc1cc(C)c2cc(CN(CC3CCCO3)C(=S)NCc3ccco3)c(=O)[nH]c2c1 (stereo not given)	15
CC(C)C(O)(C(=O)NNc1ccccc1)C(C)C	4
CCCn1c(N)c(N(CCOC)C(=O)/C=C/c2ccc(C(=O)OC)cc2)c(=O)[nH]c1=O	2
COc1ccc(-c2[nH]ncc2CN(CCO)Cc2cccs2)c(F)c1	3
COCCn1cnc2c1c(=O)n(CC(=O)OCC(=O)NCCCc1ccccc1)c(=O)n2Cc1ccccc1	14
CC(=O)Nc1ccc(/C=N/NC(=O)CNC(=O)c2ccccc2)cc1	-3
O=C(CSc1nc2[nH]ncc2c(=O)[nH]1)NCc1ccccc1Cl	17
O=C(c1ccc2c(c1)OCO2)C1CCCN(Cc2cn[nH]c2-c2ccccc2)C1 (stereo not given)	17
COc1ccccc1N(CC(=O)NCc1ccccc1)C(=O)CCC(=O)Nc1ccccn1	9
CCOC(=O)Cc1csc(N/C(=N/S(=O)(=O)c2ccc(Cl)cc2)c2ccccc2)n1	19
COc1ccc(CC(=O)OCC(=O)Nc2ccc(Br)cc2)cc1	13
Cc1ccc(-c2nnn(CC(=O)N(Cc3cccs3)C(C(=O)NCC3CCCO3)c3ccco3)n2)o1 (stereo not given)	10
Cc1ccc(Cn2c(=O)c3cccnc3n(CC(=O)Nc3cccc(C(F)(F)F)c3)c2=O)cc1	26
C/C(=N\NC(=O)CCc1c[nH]c2ccccc12)c1cccc([N+](=O)[O-])c1	13
CCN(CC)CCNC(=O)c1cc(S(C)(=O)=O)ccc1OC	-5
Cc1cnc(C(=O)Nc2ccc(C)c(S(=O)(=O)N(C)C)c2)cn1	3
CCN(C(=O)COC(=O)c1c2c(nc3ccccc13)/C(=C/c1ccccc1)CC(C)C2)C1CCS(=O)(=O)C1 (stereo not given)	11
Cc1ccc(NC(=O)COC(=O)[C@H](C)NC(N)=O)c(C)c1	0
CC(C)NC(=O)NC(=O)COC(=O)c1ccc(OC(F)(F)F)cc1	7
COc1ccc(C2NCCc3c2[nH]c2ccccc32)cc1CSc1nc2ccccc2s1 (stereo not given)	12
COc1ccccc1-n1cnnc1SCC(=O)Nc1cc(C)on1	15
O=C(O)CNC(=S)N(Cc1ccccc1)Cc1cccs1	1
CCOc1ccc(C2C(C#N)=C(N)Oc3nc[nH]c(=O)c32)cc1 (stereo not given)	-2
CC(C)COc1ccc(C(=O)NC(=S)Nc2ccc(CN3CCOCC3)cc2)cc1	10
O=c1cc(CO)oc(C(Nc2ccccn2)c2ccccc2Cl)c1O (stereo not given)	5
CCCCCNC(=O)c1c[nH]c2ccc(S(=O)(=O)N3CCC4(CC3)OCCO4)cc2c1=O	14
COc1ccccc1NC(=O)NCc1ccccc1F	-13
CC(C)(C)C(=O)Nc1nc(-c2ccccc2)ns1	10
COc1ccc(C2c3ccc(O)cc3Oc3ncn(CCCO)c(=N)c32)cc1 (stereo not given)	23
C=CCNC(=O)CC(=O)N/N=C/c1ccc(F)cc1	14
CN1C(=S)SC2CS(=O)(=O)CC21C (stereo not given)	25
CCOc1cc(/C=C2\SC(=O)N=C2N)ccc1O	6
O=C(c1cccc(S(=O)(=O)N2CCCCCC2)c1)N1CCN(c2ccccc2)CC1	4
CC(C)CC(CO)N1CCN(C(=O)c2ccc(Cl)cc2Cl)CCC1=O (stereo not given)	6
COc1ccccc1NC(=O)c1ccc2snnc2c1	6
COc1ccc(NC(=O)CN2C(=O)CSC2=O)cc1	4
C/C=C/C=C/[C@H]1Cc2cc(O)cc(O)c2O1	12
CC(=O)Nc1sc(N/N=C\c2ccc(O)cc2)nc1-c1cccs1	8
COC(=O)CSc1nnc(COc2ccc([N+](=O)[O-])cc2)n1C	8
COc1ccccc1N1CCN(/N=C/c2cccc(O)c2)CC1	3
O=C(OCC1O[C@@H](OC(=O)c2cc(O)c(O)c(O)c2)[C@@H](OC(=O)c2cc(O)c(O)c(O)c2)[C@@H](OC(=O)c2cc(O)c(O)c(O)c2)[C@@H]1OC(=O)c1cc(O)c(O)c(O)c1)c1cc(O)c(O)c(O)c1 (stereo not given in full)	5
COc1ccc(NC(=O)c2cc3c(=O)n(C)c4ccccc4c3n2C)cc1Cl	20
O=C(O)c1cccc(COc2ccc3c(c2)CCC3)c1	18
Cc1cccc(N2CCN(Cc3cn(C)nc3-c3ccccc3F)CC2)n1	28
CCOCCCNC(=O)CN1C(=O)CSc2ccccc21	0
C=CCn1c(SCc2cc(C(C)=O)ccc2OCC)nc2ccccc2c1=O	11
O=C(C(=S)N1CCOCC1)c1c[nH]c2ccccc12	12
Cc1noc(C)c1COC(=O)CCCNC(=O)c1ccc(Cl)cc1	3
Cc1ccc(NC(=S)NCc2ccccc2)cc1S(=O)(=O)N1CCCCC1	6
CCOC(=O)C(NCCc1ccccc1)(NC(C)=O)C(F)(F)F (stereo not given)	7
Cc1ccc(S(=O)(=O)Oc2ccccc2/C=N/N=C(N)N)cc1	19
COc1ccc(CCNC(=O)COC(=O)c2cc(S(=O)(=O)NCc3ccccc3)ccc2O)cc1OC	8
CN1C2CCC1CC(NC(=O)CSc1ccc(C(C)(C)C)cc1)C2 (stereo not given)	8
CN1CCC(OC(=O)COc2ccc(Cl)cc2Cl)CC1	11
CCOc1ccc(-n2c(=S)sc3c(=O)[nH]c(SCC(=O)NCC4CCCO4)nc32)cc1 (stereo not given)	25
Cc1nn2c(SCC(=O)c3cccs3)cc(C(C)(C)C)nc2c1-c1ccccc1	-1
COc1ccc(CN(CC2CCC(C(=O)O)CC2)C(=S)Nc2cccc(C)c2)cc1 (stereo not given)	4
COC(=O)c1c(N)sc2c1CC(C)(C)OC2	18
CCC(=O)c1ccc(OCC(=O)NC2(C#N)CCCCC2)cc1	8

Remaining list, next part
SMILES	Biofilm kill mix
COCCN(C(=O)CSc1nnc(Nc2ccc(C)cc2)s1)c1c(N)n(CC(C)C)c(=O)[nH]c1=O	5
Cc1ccc(OCC(=O)N/N=C/c2ccc3c(c2)OCO3)cc1C	33
CC(C)CC(=O)NCCCN1CCN(CCCNC(=O)CC(C)C)CC1	5
C#CC(C)(C)NC(=O)c1sccc1Oc1ccc(F)cc1[N+](=O)[O-]	7
COCCOC(=O)c1sc2nc[nH]c(=O)c2c1C	30
S=c1[nH]nc(Cc2cccc3ccccc23)o1	0
O=C(O)c1ccccc1NCCO	-1
Nc1nnnn1CC(=O)N/N=C/c1ccc(-c2cccc(Cl)c2)o1	12
Cc1ccc2c(c1)C1CN(C)CCC1N2C(=O)COc1ccc(N(C)C(=O)c2ccccc2)cc1 (stereo not given)	23
CS(=O)(=O)c1ccc(Cl)c(NC(=O)c2cccc(Br)c2)c1	7
CCCCCN(C(=O)NC(=O)Nc1ccc(C)cc1C)S(C)(=O)=O	8
COC(=O)c1ccc(CN2CCN(CCCc3ccccc3)C(CCO)C2)cc1 (stereo not given)	13
CCOc1ccc(N2C(=O)/C(=C/c3ccccc3)N=C2SC)cc1	-1
CC(=O)Cc1nsc(NC(=O)c2cccc(F)c2)n1	6
CC(=O)c1c(C)[nH]c(C(=O)NCc2ccco2)c1C	-10
COc1ccccc1NC(=O)C(=O)N/N=C/c1cccs1	13
Cc1cccc(CSc2nnc(CCNC(=O)OC(C)(C)C)o2)c1	34
CC1(C)C([N+](=O)[O-])C(c2ccc(F)cc2)NC(c2ccc(F)cc2)C1[N+](=O)[O-] (stereo not given)	7
COc1ccccc1/C=C\C=N\NC(=O)CCn1nnc2ccccc21	0
CCOC(=O)C1CCN(C(=S)NC2CC3C=CC2C3)CC1 (stereo not given)	14
CN(NC1OC(=O)c2ccccc21)c1ccc(C(F)(F)F)cc1[N+](=O)[O-] (stereo not given)	13
CCN(Cc1cc(=O)n2ccsc2n1)Cc1nc2cc(OC)c(OC)cc2c(=O)[nH]1	20
COC(=O)N/N=C/c1cccc(OC(=O)c2ccc3c(c2)OCO3)c1	9
Cn1cc(Br)c(C(=O)NNC(=O)Nc2ccccc2C(F)(F)F)n1	11
CC1CC(=O)N(C)c2ccc([N+](=O)[O-])cc2N1 (stereo not given)	8
CCOC(=O)c1[nH]c(C)c(C(=O)N2CCN(c3ccc(OC)cc3)CC2)c1C	9
O=C(OCc1cnc(Cl)s1)c1c(F)cccc1F	20
Cc1ccc(/C=N/NC(=O)c2cccc([N+](=O)[O-])c2)o1	7
Cc1ccc(-c2cc(C(=O)Nc3ccc(S(=O)(=O)Nc4ncccn4)cc3)[nH]n2)c(O)c1C	7
COc1ccc(-n2cnc3scc(-c4ccc(OC)c(OC)c4)c3c2=O)cc1	2
COc1ccc(CNC(=O)Cn2cncn2)cc1OC	12
CN(c1ccccc1)S(=O)(=O)c1cccc(NS(=O)(=O)c2ccc(/C=C/C(=O)O)cc2)c1	3
O=C(O)c1cc([N+](=O)[O-])ccc1NCc1ccccc1Cl	10
COc1cccc(NC(=O)Cn2c(=O)n(-c3ccccc3)c(=O)c3sccc32)c1	14
COc1cc(C(=O)NCC(=O)N/N=C(C)\C=C\c2ccccc2)cc(OC)c1OC	19
CN1CCN(S(=O)(=O)c2ccc(Oc3ccc(F)c(Cl)c3)nc2)CC1	11

Shown in markdown: part of the list above.
| molecule | Biofilm kill mix |
| --- | --- |
| Cc1ccc(-c2cc(C(=O)Nc3ccc(S(=O)(=O)Nc4ncccn4)cc3)[nH]n2)c(O)c1C | 7 |
| COc1ccc(-n2cnc3scc(-c4ccc(OC)c(OC)c4)c3c2=O)cc1 | 2 |
| COc1ccc(CNC(=O)Cn2cncn2)cc1OC | 12 |
| CN(c1ccccc1)S(=O)(=O)c1cccc(NS(=O)(=O)c2ccc(/C=C/C(=O)O)cc2)c1 | 3 |

More entries follow.
SMILES	Biofilm kill mix
CCCCN(CCCC)C(=O)C1(P(=O)(c2ccccc2)c2ccccc2)CCC1	15
Cc1ccc(C(=O)NCCc2nnc(SCC(=O)Nc3nc(-c4ccccc4)cs3)n2C)cc1	12
COc1ccc(CC(C#N)(CO)c2nc3ccccc3[nH]2)cc1 (stereo not given)	9
COc1ccc(NC(=O)CCCC2CCCCC2)cc1S(=O)(=O)N1CCCCC1	20
CCOC(=O)/C(C#N)=C\C1=C(N2CCCC2)CC(C)(CC)OC1 (stereo not given)	10
O=C(C[n+]1cc(-c2ccc(F)cc2)n2c1CCC2)c1cccs1	22
CCCC(C)C(=O)OCC(=O)NCc1ccc(OC)c(OC)c1 (stereo not given)	-4
CN(C)CCN(Cc1cc2cc3c(cc2[nH]c1=O)OCCO3)C(=S)NCC1CCCO1 (stereo not given)	12
COc1ccc(CN2CCNC(=O)C2CC(=O)NCCSc2nccn2C)c(OC)c1 (stereo not given)	25
CCCOc1ccc(Oc2nc(-c3ccncc3)nc3ccccc23)cc1	16
CCN1CCN(Cc2ccc(NC(=O)c3ccc(C)c(NC(=O)C[C@@H]4NC(=O)[C@H](Cc5ccccc5)NC4=O)c3)cc2C(F)(F)F)CC1	20
Cc1ccc(S(=O)(=O)N(C)C(=O)NC(=O)NS(=O)(=O)c2ccccc2)cc1	14
CCCCN(CC)Cc1ccc(CNC(=S)Nc2c(C)cc(C)cc2C)o1	6
Cc1ccc(C(=O)NNC(=O)CCN2C(=O)C3CCCCC3C2=O)cc1 (stereo not given)	16
COc1cc2cc(CN(Cc3cccs3)C(=S)Nc3cccc(C)c3)c(=O)[nH]c2cc1OC	18
Cc1[nH]n(-c2nc(-c3ccccc3)cc(=O)[nH]2)c(=O)c1CCO	10
O=C1/C(=C/c2cccnc2)SC(=S)N1c1ccccc1	19
O=C(NCC(=O)N(c1ccccc1)C(C(=O)NC1CCCCC1)c1cccnc1)c1cccs1 (stereo not given)	26
C=CCNC(=S)Nc1ccc2cn[nH]c2c1	20
C#Cc1ccc([C@@H]2C=C(C(=O)NC3CC3)O[C@H](OCC)[C@H]2CCCO)cc1	11
O=C(NCCc1ccccc1)C(c1cccs1)N(C(=O)CCl)c1ccc(Cl)cc1 (stereo not given)	20
CCOc1ccc(C(=O)NCC(=O)OCc2c(F)cccc2Cl)cc1OCC	18
CCCOc1ccc(/C=C/C(=O)N2CCN(c3ccccn3)CC2)cc1	9
CC(C)CCN1CCN(Cc2cccc3nonc23)CC1CCO (stereo not given)	-1

A second format for part of the listing above:
SMILES | Biofilm kill mix
Cc1ccc(C(=O)NNC(=O)CCN2C(=O)C3CCCCC3C2=O)cc1 (stereo not given) | 16
CN1CCN(S(=O)(=O)c2ccc(Oc3ccc(F)c(Cl)c3)nc2)CC1 | 11
O=C(O)c1cc([N+](=O)[O-])ccc1NCc1ccccc1Cl | 10
CN1C2CCC1CC(NC(=O)CSc1ccc(C(C)(C)C)cc1)C2 (stereo not given) | 8
C=CCn1c(SCc2cc(C(C)=O)ccc2OCC)nc2ccccc2c1=O | 11
O=C(NCC(=O)N(c1ccccc1)C(C(=O)NC1CCCCC1)c1cccnc1)c1cccs1 (stereo not given) | 26
CCOC(=O)/C(C#N)=C\C1=C(N2CCCC2)CC(C)(CC)OC1 (stereo not given) | 10

Other structures:
SMILES	Biofilm kill mix
COc1cc(OC)cc(C(=O)NCC(=O)OCC(=O)N2c3ccccc3NC(=O)C2(C)C)c1	15
COc1cccc(NC(=O)Cn2c(=O)n(-c3ccccc3)c(=O)c3oc4ccccc4c32)c1	8
C/C(=N\NC(=O)c1ccoc1C)c1ccccc1	15
CN(CC(=O)Nc1ccccc1[N+](=O)[O-])Cc1ccc(Br)cc1	16
O=[N+]([O-])c1ccc(C2CNC(c3ccccc3)O2)cc1 (stereo not given)	7
CC(=O)OCc1ccccc1Sc1ccccc1C(=O)NCc1ccccc1	11
Cc1cc(=O)cc(C)n1-c1ccc(O)cc1	19
O=C(NCc1ccccc1)/C(=C/c1ccc(OC(F)F)cc1)c1ccccc1	2
O=c1[nH]c(-c2ccccn2)nc2sc(-c3ccccc3)cc12	14

The list is partial; rates above refer to the full screens.
